DUX4 inh – DUX4-mediated transcription inhibition; activity change, negative = inhibition, % (no concentration beside the values); 37,000 compounds, 0.8% hits; 293T-iDUX4 ZSCAN4-Gaussia luciferase reporter, 24 h; stronger effect = lower value;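 active = -10% or lower and over 25 points stronger than a control reporter; inconclusive = -10% or lower with a smaller gap; inactive = above -10%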;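 note: 0% = median of neutral control wells and -100% = median of positive control wells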
DUX4 inh difference – second read-out of DUX4 inh, no call of its own (marks repeat the call); Gaussia minus Italica difference, %; measured here: selective DUX4 reporter inhibition;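 worked out from the two reporters; negative = selective loss of the DUX4 reporter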
DUX4 inh control – further read-out of DUX4 inh, marked with its call; activity change, negative = inhibition, %; measured here: Italica tet-on control reporter;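 0 = neutral control and -100 = positive control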
Numbers without * were called inactive; ? = inconclusive; . = not tested or not shown. An excerpt; the hit share may differ from the screen's.

structure,DUX4 inh,DUX4 inh control,DUX4 inh difference
C[C@H](CO)N1C[C@H](C)[C@@H](CN(C)Cc2ccc(C(F)(F)F)cc2)OCCCC[C@H](C)Oc2ccc(NC(=O)CCCN(C)C)cc2C1=O,-3.0,4.6,-7.6
CC(C)NC(=O)N(C)C[C@H]1OCc2cn(nn2)CCCC(=O)N([C@@H](C)CO)C[C@@H]1C,1.5,5.7,-4.2
CC(C)NC(=O)N1C[C@H]2[C@@H](c3ccccc31)[C@H](CO)N2C(=O)c1ccc(F)cc1,-1.9,2.1,-3.9
C[C@H](CO)N1C[C@H](C)[C@@H](CN(C)S(=O)(=O)c2cn(C)cn2)Oc2cc(C#Cc3cccc(F)c3)ccc2S1(=O)=O,0.7,-4.0,4.7
O=C1CN(S(=O)(=O)Cc2ccccc2)C[C@@H]2[C@H](c3ccc(C#Cc4ccccc4)cc3)[C@@H](CO)N12,?,.,.
O=C(Nc1ccc(F)cc1)N1CCCCN2[C@H](CO)[C@@H](c3ccc(-c4cccc(F)c4)cc3)[C@@H]2C1,?,.,.
CN(C)CC#Cc1ccc([C@@H]2[C@H](CO)N3CCCCN(C(=O)CN(C)C)C[C@@H]23)cc1,21.3,18.9,2.4
CO[C@H]1CC[C@H]2CCOc3ccc(C#N)cc3C(=O)N(C)C[C@@H](c3ccccc3)CC(=O)N(C)C[C@H]1O2,-3.4,-0.9,-2.5
COc1ccc2c3c(n(C)c2c1)[C@H](CO)N(Cc1ccccc1)CC31CCN(C)CC1,-4.4,0.0,-4.4
C[C@H]1CN([C@@H](C)CO)C(=O)CCCn2cc(nn2)CO[C@@H]1CN(C)S(C)(=O)=O,5.0,8.1,-3.1
COC(=O)C[C@@H]1CC[C@H]2[C@@H](COC[C@@H](O)CN2S(=O)(=O)c2ccccc2OC)O1,10.4,3.5,6.9
CCCNC(=O)C[C@H]1CC[C@H]2[C@@H](COc3ccc(NS(=O)(=O)c4ccccc4C)cc3C(=O)N2C)O1,-0.4,2.1,-2.5
C[C@@H]1CN([C@@H](C)CO)C(=O)c2cccc(NS(=O)(=O)c3cn(C)cn3)c2O[C@H]1CN(C)Cc1ccc(Oc2ccccc2)cc1,-1.7,1.3,-3.0
C[C@@H](NC(=O)C[C@@H]1CC[C@H]2[C@@H](COC[C@H](O)CN2C(=O)Nc2cc(Cl)cc(Cl)c2)O1)c1ccccc1,?,.,.
C[C@@H]1CN([C@H](C)CO)S(=O)(=O)c2ccc(-c3ccc(F)cc3)cc2O[C@H]1CN(C)Cc1ccccc1C(=O)O,3.7,2.2,1.5
COc1cccc(-c2ccc([C@H]3[C@@H](C#N)N(C(=O)Cc4ccncc4)[C@@H]3CO)cc2)c1,1.2,-0.6,1.9
CNC[C@H]1Oc2ccc(N(C)C)cc2C(=O)N([C@@H](C)CO)C[C@H]1C,1.5,0.4,1.1
C[C@@H]1CN([C@@H](C)CO)C(=O)c2c(c3ccccc3n2C)-c2ccccc2CO[C@@H]1CN(C)S(=O)(=O)c1ccc([N+](=O)[O-])cc1,?,.,.
COc1ccc2c3c([nH]c2c1)[C@H](CO)N(C(=O)Nc1ccc(F)cc1)CC31CN(S(=O)(=O)c2cccs2)C1,-3.8,-4.2,0.4
CCCNC(=O)C[C@@H]1CC[C@@H]2[C@@H](COc3ccc(NC(=O)c4cc(F)cc(F)c4)cc3C(=O)N2C)O1,-0.1,6.1,-6.2
Cc1noc(C)c1NC(=O)N1C[C@@H](O)COC[C@@H]2O[C@@H](CC(=O)N[C@H]3CCN(Cc4ccccc4)C3)CC[C@H]21,6.0,3.2,2.8
Cc1ccc(S(=O)(=O)N2CC[C@@H]3[C@H](CO)Nc4ccc(-c5ccc(C#N)cc5)cc4[C@@H]32)cc1,?,.,.
CC=Cc1ccc2n(c1=O)C[C@@H]1[C@@H](CO)[C@H](C(=O)NCC)N(Cc3nccs3)[C@H]21 (mixture of isomers),-1.9,4.4,-6.3
O=C(C[C@H]1CC[C@H]2[C@@H](COC[C@@H](O)CN2S(=O)(=O)c2ccc(Cl)cc2)O1)NCc1ccc(Cl)c(Cl)c1,?,.,.
COCC(=O)N1CC2(C1)CN(Cc1ccccc1F)[C@H](CO)c1[nH]c3cc(OC)ccc3c12,?,.,.

(more compounds)
structure,DUX4 inh,DUX4 inh control,DUX4 inh difference
C[C@@H]1CN([C@@H](C)CO)C(=O)c2cc(C#C[C@@H](C)O)cnc2O[C@@H]1CN(C)Cc1cncnc1,-4.2,-2.5,-1.6
CCCNC(=O)N1[C@H](CO)[C@H](c2ccc(-c3cccnc3)cc2)[C@@H]1C#N,6.9,1.0,5.9
COc1ccc(NC(=O)N(C)C[C@H]2OCc3ccccc3-c3c(n(C)c4ccccc34)C(=O)N([C@H](C)CO)C[C@@H]2C)c(OC)c1,-3.6,-4.4,0.8
CCNC(=O)C[C@H]1CC[C@@H]2[C@H](COC[C@H](O)CN2C(=O)c2ccccn2)O1,4.4,3.0,1.4
C[C@H](NC(=O)C[C@H]1CC[C@@H]2[C@H](COC[C@@H](O)CN2C)O1)c1ccccc1,14.2,2.7,11.6
C[C@H]1CN([C@@H](C)CO)C(=O)c2cc(C#CCN(C)C)cnc2O[C@H]1CN(C)Cc1cccc(C(=O)O)c1,-3.5,-3.1,-0.4
C[C@H](NC(=O)C[C@@H]1C=C[C@H](NC(=O)c2cccnc2)[C@H](CO)O1)c1ccccc1,2.7,1.5,1.2
CCCC(=O)Nc1ccc2c(c1)C(=O)N(C)[C@H]1CC[C@@H](CC(=O)O)O[C@H]1CO2,-0.7,-1.8,1.1
CC(C)[C@@H](C)NC(=O)N(C)C[C@H]1OCc2ccccc2-c2ccccc2C(=O)N([C@H](C)CO)C[C@@H]1C,6.6,2.5,4.1
CO[C@@H]1CN(C)C(=O)c2cc(NS(=O)(=O)CC(F)(F)F)ccc2OC[C@H](C)NC[C@H]1C,-1.7,7.7,-9.4
COCC#Cc1ccc([C@H]2[C@H](CO)N3C(=O)CN(C(=O)C4CCCCC4)C[C@@H]23)cc1,9.4,9.3,0.1
CN1c2ccc(C#Cc3cccnc3)cc2[C@H]2[C@H](CCN2S(=O)(=O)c2ccccc2)[C@@H]1CO,?,.,.
OC[C@@H]1[C@H](c2ccc(C#Cc3ccccc3F)cc2)[C@@H]2CN(CC3CCOCC3)CCCCN12,-7.5,-7.1,-0.5
CCN(C[C@@H]1N[C@@H](CO)[C@H]1c1ccc(-c2cccc(F)c2)cc1)C(=O)CN(C)C,1.0,2.2,-1.2
COc1ccccc1C#Cc1ccc([C@H]2[C@H](C#N)N(C(=O)C3CCCCC3)[C@H]2CO)cc1,-3.0,-0.1,-3.0
COC(=O)C[C@H]1CC[C@H]2[C@H](COc3ccc(NC(=O)C4CCOCC4)cc3C(=O)N2C)O1,0.5,-8.4,8.9
O=C(C[C@H]1C[C@H]2c3cc(NC(=O)Nc4ccccc4F)ccc3O[C@H]2[C@H](CO)O1)NCCc1ccccc1,-6.5,-0.8,-5.7
CN(C)CC(=O)N1[C@@H](C#N)[C@H](c2ccccc2-c2ccccc2F)[C@@H]1CO,10.7,4.5,6.1
O=C(NC1CCCC1)N1CC(=O)N2[C@H](CO)[C@H](c3ccc(-c4ccccc4)cc3)[C@@H]2C1,-3.1,-8.1,4.9
C[C@@H](NC(=O)[C@H]1[C@H](CO)[C@H]2Cn3c(ccc(-c4ccccc4)c3=O)[C@H]2N1C)c1ccccc1,9.2,0.9,8.3
O=C(Cc1ccccc1)N1CC[C@@H]2[C@H]1c1cc(-c3ccccc3)ccc1N[C@@H]2CO,?,.,.
C[C@@H](NC(=O)[C@@H]1[C@@H](CO)[C@@H]2Cn3c(cccc3=O)[C@H]1N2Cc1ccccc1)c1ccccc1,4.7,3.2,1.6
COc1cccc(S(=O)(=O)N(C)C[C@H]2OCc3cnnn3CCCC(=O)N([C@H](C)CO)C[C@H]2C)c1,-4.3,-3.9,-0.4
CCC(=O)N1C[C@H](O)COC[C@@H]2O[C@H](CC(=O)NCc3cc(F)cc(F)c3)CC[C@H]21,3.6,2.4,1.1
CCCNC(=O)N1[C@@H]2Cn3c(ccc(-c4cccc(OC)c4)c3=O)[C@H]1[C@@H](C(=O)NC1CCC1)[C@@H]2CO,-2.2,2.3,-4.5

(cont.)
structure,DUX4 inh,DUX4 inh control,DUX4 inh difference
COC(=O)[C@@H]1[C@@H](CO)[C@@H]2Cn3c(ccc(-c4cccc(F)c4)c3=O)[C@@H]2N1CC1CCCC1,-8.3,-1.9,-6.4
O=C(Nc1ccc(F)cc1)N1C[C@H]2[C@@H](c3ccccc31)[C@H](CO)N2C(=O)c1ccccc1,-0.2,0.7,-0.9
Cc1ccccc1S(=O)(=O)N1CC(=O)N2[C@@H](CO)[C@@H](c3ccc(C#CCN(C)C)cc3)[C@@H]2C1,-1.6,3.9,-5.6
CN(C)CC(=O)N1[C@@H]2c3ccc(-c4ccncc4)c(=O)n3C[C@H]1[C@H](CO)[C@H]2C(=O)NC1CCC1,-6.1,0.6,-6.7
O=C(c1cccnc1)N1CCCCN2[C@H](C1)[C@@H](c1ccc(C#Cc3cccnc3)cc1)[C@@H]2CO,-6.0,-2.1,-3.9
CO[C@H]1CN(C)C(=O)c2ccc(NS(=O)(=O)CC(F)(F)F)cc2OC[C@H](C)N(Cc2nccs2)C[C@H]1C,-2.2,-2.7,0.5
C/C=C/c1ccc([C@H]2[C@@H](C#N)N(C(=O)NC3CCCC3)[C@@H]2CO)cc1,1.9,0.2,1.8
CN(C)CC(=O)N1[C@@H]2c3ccc(C4=CCCCC4)c(=O)n3C[C@H]1[C@H](CO)[C@H]2C(=O)NCC1CC1,0.6,5.4,-4.8
O=C(NCCN1CCCCC1)[C@H]1N[C@H]2c3ccc(-c4ccccc4)c(=O)n3C[C@H]2[C@@H]1CO,-0.6,2.7,-3.3
CCS(=O)(=O)N1[C@H](CO)[C@H](c2ccc(C3=CCCCC3)cc2)[C@@H]1C#N,-1.0,3.2,-4.2
CCS(=O)(=O)Nc1ccc2c(c1)C(=O)N(C)[C@@H]1CC[C@H](CC(=O)N[C@@H]3CCN(Cc4ccccc4)C3)O[C@@H]1CO2,-2.0,-2.6,0.6
COC(=O)C[C@H]1C[C@H]2c3cc(NS(C)(=O)=O)ccc3O[C@H]2[C@@H](CO)O1,0.9,5.9,-5.0
CN(C)C(=O)c1cccc(-c2ccc3c(c2)[C@H]2[C@H](CCN2C(=O)Nc2cccc(F)c2)[C@@H](CO)N3C)c1,?,.,.
O=C(Cc1ccncc1)NCC[C@H]1CC[C@H](NC(=O)C2CCOCC2)[C@H](CO)O1,3.7,4.6,-0.9
CN1CCN(C(=O)C[C@H]2CC[C@H]3[C@@H](COC[C@H](O)CN3C(=O)C3CCCC3)O2)CC1,0.4,-0.2,0.6
CCS(=O)(=O)N1CC2(CN(C)[C@@H](CO)c3c2c2ccc(OC)cc2n3C)C1,8.9,9.9,-1.0
O=C(NC1Cc2ccccc2C1)[C@H]1[C@H](CO)[C@H]2Cn3c(cccc3=O)[C@@H]1N2Cc1ccccc1F,-5.2,-4.5,-0.7
C[C@@H]1CN([C@H](C)CO)C(=O)c2cccc(NC(=O)c3ccncc3)c2O[C@@H]1CN(C)CC1CCCCC1,3.8,2.5,1.3
C[C@H](C(=O)N(C)C[C@@H]1OCc2ccccc2-c2ccccc2C(=O)N([C@@H](C)CO)C[C@@H]1C)c1ccccc1,?,.,.
CC(C)NC(=O)N1C[C@@H]2[C@H](c3ccccc31)[C@H](CO)N2C(=O)c1ccncc1,-1.7,2.6,-4.4
COCC(=O)N1[C@H](C#N)[C@H](c2ccc(C#CCC3CCCC3)cc2)[C@@H]1CO,0.6,1.1,-0.4
CN1C(=O)c2cc(NC(=O)c3ccc(C(F)(F)F)cc3)ccc2OC[C@@H]2O[C@@H](CC(=O)NC3Cc4ccccc4C3)CC[C@H]21,-0.5,-2.5,2.0
CN1C(=O)c2cc(NC(=O)c3ccccc3Cl)ccc2OC[C@H]2O[C@@H](CC(=O)Nc3ccc4c(c3)CCC4)CC[C@@H]21,-2.4,-0.5,-1.9
COc1cccc(NC(=O)N2C[C@@H](O)COC[C@@H]3O[C@H](CC(=O)NC4CCCC4)CC[C@H]32)c1,3.2,0.1,3.1
O=C(C[C@H]1C[C@H]2c3cc(NC(=O)c4cccnc4)ccc3O[C@H]2[C@H](CO)O1)NCc1ccccn1,6.6,-2.8,9.4

Whole records as entered above.
Shown for CC=Cc1ccc2n(c1=O)C[C@@H]1[C@@H](CO)[C@H](C(=O)NCC)N(Cc3nccs3)[C@H]21 (mixture of isomers) = DUX4 inh: -1.9; DUX4 inh control: 4.4; DUX4 inh difference: -6.3
Shown for CN(C)CC(=O)N1[C@@H](C#N)[C@H](c2ccccc2-c2ccccc2F)[C@@H]1CO = DUX4 inh: 10.7; DUX4 inh control: 4.5; DUX4 inh difference: 6.1

Following part
structure,DUX4 inh,DUX4 inh control,DUX4 inh difference
COC(=O)[C@@H]1[C@@H](CO)[C@@H]2Cn3c(ccc(-c4ccccc4F)c3=O)[C@@H]2N1Cc1ccncc1,-5.3,1.4,-6.7
CNC(=O)C[C@@H]1CC[C@@H]2[C@H](COc3ccc(NC(=O)Nc4cccc(C)c4)cc3C(=O)N2C)O1,-1.8,1.1,-3.0
COC(=O)C[C@@H]1C[C@@H]2c3cc(NS(C)(=O)=O)ccc3O[C@@H]2[C@@H](CO)O1,6.3,5.0,1.3
C[C@@H]1CN([C@H](C)CO)C(=O)c2cc(N(C)C)ccc2O[C@@H](C)CCCCO[C@@H]1CN(C)S(=O)(=O)c1ccc(F)cc1,0.8,-5.1,5.8

Source: PubChem (Broad Institute)
